High-throughput results as filed in PubChem.
Sfp inh: Sfp phosphopantetheinyl transferase inhibition | Q9F4F7 | Biochemical Sfp PPTase activity, qHTS | Potency, µM, without a hit: max response, negative = inhibition, usual class: inhibitors | 310,000 tested, 3.5% active | AID 1490; active = well fitted inhibition curve with a large enough effect; inconclusive = small, poorly fitted or top-dose-only effect, or another doubt; inactive = no such curve, though single readings can be large or run the other way;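 also: the enzyme is Sfp with the accession as filed and its product quenches rhodamine fluorescence; potency is read from the fitted curve at half-maximal effect; 0% = enzyme reaction without inhibitor and -100% = no enzyme wells; top concentration of the series not given in the record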
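Fluorescence-quenching assay with 15 nM Sfp, 5 uM rhodamine-CoA and 12.5 uM BHQ-2-labelled ybbR peptide in pH 7.6 Hepes/MgCl2 buffer. Enzyme was pre-incubated with compound for 15 min at room temperature. Rate was taken from the 30-min fluorescence change (525/598 nm).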
TRPV1 PAM: enhances activation of the human vanilloid receptor TRPV1; potentiation, % at 8.33 µM; 320,000 tested, 0.02% active; TRPV1-expressing cells, Fluo-8 calcium influx, capsaicin EC20 potentiation; host cell line not named in the record; control for the full effect not named in the record; active means potentiation above 80%; inconclusive means 30% to 80%; inactive means below 30%; also: 0% is about no effect
Target sequence (Q8NER1 whole entry, looked up): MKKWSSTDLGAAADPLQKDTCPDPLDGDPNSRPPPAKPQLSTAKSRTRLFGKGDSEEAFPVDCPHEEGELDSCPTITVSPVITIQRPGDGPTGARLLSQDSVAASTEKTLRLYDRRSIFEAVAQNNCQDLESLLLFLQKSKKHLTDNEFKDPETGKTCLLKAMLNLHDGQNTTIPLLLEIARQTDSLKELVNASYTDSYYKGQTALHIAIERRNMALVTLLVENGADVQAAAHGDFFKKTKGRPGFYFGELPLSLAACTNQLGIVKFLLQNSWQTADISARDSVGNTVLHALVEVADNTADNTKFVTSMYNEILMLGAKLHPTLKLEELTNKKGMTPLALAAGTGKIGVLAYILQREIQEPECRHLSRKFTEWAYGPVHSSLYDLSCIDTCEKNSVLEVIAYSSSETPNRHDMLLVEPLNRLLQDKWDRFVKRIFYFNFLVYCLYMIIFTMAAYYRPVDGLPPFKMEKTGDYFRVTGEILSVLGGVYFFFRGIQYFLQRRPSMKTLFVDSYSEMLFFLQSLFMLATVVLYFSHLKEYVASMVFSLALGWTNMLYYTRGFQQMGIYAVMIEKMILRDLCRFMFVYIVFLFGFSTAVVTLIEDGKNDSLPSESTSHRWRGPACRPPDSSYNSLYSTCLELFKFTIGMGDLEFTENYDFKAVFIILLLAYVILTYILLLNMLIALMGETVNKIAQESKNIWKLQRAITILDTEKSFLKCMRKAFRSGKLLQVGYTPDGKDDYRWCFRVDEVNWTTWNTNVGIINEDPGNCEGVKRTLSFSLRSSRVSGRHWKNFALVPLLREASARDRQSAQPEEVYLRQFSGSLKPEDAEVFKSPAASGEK
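Cells expressing TRPV1 were dye-loaded with Fluo-8 and read kinetically: 10 s baseline, 3 min after compound (agonist portion), then 2 min after EC20 capsaicin (allosteric enhancer portion). Calcium-bound dye fluorescence at 480/520 nm.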
Menin-MLL FL inh: inhibitors of human menin-MLL interaction, wild-type MLL peptide | Fluorescence polarization, fluorescein-MLL peptide displacement from menin | FP activity change, % at 61.4 µM | 290,000 tested, under 10 active | AID 1766; inconclusive = falling polarisation curve, or a change in total fluorescence; inactive = total fluorescence flat and polarisation flat or rising; no compound was filed as active; the % refers to the polarisation; negative = inhibition;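 also: % of control where 0% means no effect; inhibitors lower the polarisation; unlabelled MLL peptide was the positive control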
ClpP mod: qHTS Assay for Activators of ClpP; ATP-dependent Clp protease proteolytic subunit (Bacillus subtilis (strain 168)), P80244; purified B. subtilis ClpP, FRET peptide cleavage, 20 min; Potency, µM (doses to about 57.5 µM), for the others: at the top dose activity change, negative = active; 340,000 tested, 1.9% active; AID 651965, 2013; active = well fitted falling curve with a large enough effect; inconclusive = small, poorly fitted or top-dose-only effect; inactive = no such curve, though single readings can be large or run the other way; also: potency is read from the fitted curve at half-maximal effect; the source files actives as falling curves though it sought activators and does not explain the sign; nearly all actives have a fitted effect of over 65% in size; many hits overshoot -100%
Target sequence (P80244 whole entry, looked up): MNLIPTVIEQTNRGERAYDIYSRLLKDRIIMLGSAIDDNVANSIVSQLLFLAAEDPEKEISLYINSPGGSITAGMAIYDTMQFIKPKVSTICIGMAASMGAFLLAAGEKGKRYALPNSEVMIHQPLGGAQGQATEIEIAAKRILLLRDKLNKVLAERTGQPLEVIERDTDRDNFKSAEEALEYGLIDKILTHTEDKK
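ClpP 10 microg/mL final, pH 8 Tris/KCl buffer with BSA, glycerol, Tween-20; compound pinned in; FRET-FV substrate; RT 20 min; Ex320/Em430; ΔFRET vs ADEP 5.8 microM, DMSO, no enzyme.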
CtBP-E1A blk: inhibitors of CtBP/E1A interaction; AlphaScreen GST-E1A/His-CtBP binding, 1536-well; stronger effect = lower value; control for the full effect not named in the record; activity change, % (no concentration beside the values); 340,000 tested, 0.49% active; AID 651724; in the data active means activity change below about -65%; inconclusive means about -30% to -65%; inactive means above about -30%; also: % is scaled to controls: 0 for no effect and ±100 for the full control effect; compound concentration not given in the record
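In 5 uL wells, 23 nL compound meets equimolar GST-E1A and His-CtBP (5X stock 125 nM each) for 2 h, 37 °C. Beads (5X, 50 ug/mL) then 1 h, 37 °C, dark.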
gsp agonist: gsp mutant agonism | AID 624287 | 340,000 tested, 0.13% active | Potency, µM (titrated, usually from 76.9 µM), for the others: at the top dose activation (cAMP increase), usual class: activators | gsp mutant cells, cAMP HTRF, 30 min; control for the full effect not named in the record; active = well fitted activation curve with a large enough effect; inconclusive = small, poorly fitted or top-dose-only effect, or another doubt; inactive = no such curve, though single readings can be large or run the other way; cell line not stated here;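 also: phosphodiesterase inhibitor Ro 20-1724 added with compounds to block cAMP breakdown; potency is read from the fitted curve at half-maximal effect; nearly all actives have a fitted effect of over 60% in size; about a fifth of the inactives were tested at one dose only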
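Cells in DMEM/10% FBS with G418 were pretreated with compounds in DMSO plus […] (300 uM stock) for 30 min at 37C. cAMP was measured by HTRF (cAMP-d2 plus anti-cAMP antibody-K) after 30 min at room temperature.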
gsp antag: antagonists of gsp mutant (McCune-Albright syndrome); gsp-mutant cells, cAMP HTRF, 30 min; control for the full effect not named in the record; Potency, µM (series often up to 76.9 µM), without a hit: at the highest dose activity change, negative = inhibition, hits mostly inhibitors; 340,000 tested, 0.4% active; active = falling curve of any shape with a large fitted effect; inconclusive = falling curve, mostly with a smaller effect; inactive = flat or rising curve; cell line not stated here;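 also: intracellular cAMP measured with PDE inhibitor Ro 20-1724 present during compound exposure; potency is read from the fitted curve at half-maximal effect; % is scaled to controls: 0 for no effect and ±100 for the full control effect; nearly all actives have a fitted effect of over 65% in size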
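G418-selected cells were plated in DMEM/10% FBS for 16-24 h at 37C, then treated with compounds plus the PDE inhibitor […] (300 uM solution added) for 30 min at 37C. Intracellular cAMP was measured by HTRF after 30 min lysis at room temperature.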
An asterisk follows results filed as active; u = inconclusive; x = not tested or not shown; [ ] = another dose, or the depositor's remark.

1: CC(OC(=O)c1ccc2c(=O)n3c(nc2c1)CCCCC3)C(=O)Nc1ccc(F)cc1Cl (stereo not given)
2: Cc1cccc(/N=C/c2sc3ccccc3c2O)n1
3: COc1ccccc1-n1nnnc1SCC(=O)NC1CCCCC1
4: O=C(CN1CCN(S(=O)(=O)c2ccc(Br)cc2)CC1)c1ccc(O)c(O)c1
5: Cc1ccccc1N1C(S)=C(C#N)C(=O)NC12CCCCC2
6: CC(C)(C)S(=O)(=O)/C(C#N)=N/Nc1ccc(S(C)(=O)=O)cc1
7: NC(=O)NN=C1CC2CC1C1C=CCC21 (stereo not given)
8: CCOC(=O)C1=C(N)OC2=C(C(=O)CCC2)C1c1ccco1 (stereo not given)
Screen / compound no.	1	2	3	4	5	6	7	8
Sfp inh	-25%	12%	5%	79µM*	14µM*	5%	x	4%
gsp antag	27%	-6%	5%	1%	5%	-9%	6%	-6%[15.4 µM]
ClpP mod	0.3%	-3.8%	x	-4.9%	-11%	x	-3.4%	3.0%
CtBP-E1A blk	15	-8	1	x	-10	x	-16	3
TRPV1 PAM	-8	8	-1	10	19	3	x	6
gsp agonist	2%[15.4 µM]	-1%	-13%[15.4 µM]	4%	23%[15.4 µM]	21%[15.4 µM]	-5%	-19%
Menin-MLL FL inh	2.2	u	x	x	-2.2	0.7	x	1.9

9: COc1ccc(-c2csc(NC(=O)c3ccccc3Br)c2C(=O)O)cc1
10: COc1ccc(-c2nc3ccccc3nc2-c2ccccc2)cc1OC
11: Cc1ccccc1N=Cc1ccc[nH]1
12: CC(C)N1C(=O)CCC1C(=O)N1CCN(c2ccccn2)CC1 (stereo not given)
13: O=C(c1ccc(C(F)(F)F)cc1)N1CCC(=O)N(C(CO)Cc2ccccc2)CC1 (stereo not given)
14: COc1ccc(NS(=O)(=O)c2cc(N)ccc2N2CCCCC2)cc1
15: CC(=O)Nc1cccc(C(=O)OCC(=O)N2CCC(c3ccccc3)=N2)c1
16: COc1ccccc1NC(=O)Cc1noc(CSc2nnc(C)n2C)n1
Screen / compound no.	9	10	11	12	13	14	15	16
Sfp inh	17%	-25%	x	-2%	x	x	x	18%
gsp antag	-28%	-14%	-3%	4%	10%	-9%	6%	-3%
ClpP mod	-1.9%	0.3%	0.4%	5.2%	1.8%	-0.2%	x	0.1%
CtBP-E1A blk	-3	-2	2	7	11	-9	1	-3
TRPV1 PAM	16	-12	x	17	x	-13	-11	15
gsp agonist	-4%[15.4 µM]	-6%[15.4 µM]	-16%	19%	-8%	34%	-14%[15.4 µM]	-14%
Menin-MLL FL inh	10	4.2	x	2.1	x	x	x	-0.2

17: Nc1nonc1-n1nnc(C(=O)N/N=C/c2ccoc2)c1CSc1ccc(Cl)cc1
18: CCC12C(=O)C(CC)(C(c3ccccc3)=C1c1ccccc1)[C@@H]1C(=O)N(c3ccc(C)cc3)C(=O)C12 (stereo not given in full)
19: Cc1cc(N(CCO)CCO)ccc1N=Nc1cc(F)ccc1F
20: Cc1nnc(N2CCCC(C(=O)NCc3cccc(F)c3)C2)c2nn(-c3ccccc3)c(C)c12 (stereo not given)
21: O=S(=O)(c1ccc(Cl)cc1)n1cnc2ccccc21
22: Cc1ccc(-c2cc(C(=O)Nc3c(C)n(C)n(-c4ccccc4)c3=O)[nH]n2)c(O)c1
23: Cc1ccccc1OCC(=O)NCCCNC(=O)c1ccncc1
24: Oc1c(CN2CCN(c3ccccc3)CC2)cc(Br)c2cccnc12
Screen / compound no.	17	18	19	20	21	22	23	24
Sfp inh	-5%	9%	-5%	-2%	10%	19%	1%	13%
gsp antag	u	2%	-2%	-34%	0%	-1%	4%	8%
ClpP mod	-0.3%	-1.2%	-1.0%	3.5%	x	1.1%	x	-1.3%
CtBP-E1A blk	x	0	-23	-4	12	10	-2	-26
TRPV1 PAM	-17	-4	0	-4	5	-5	2	23
gsp agonist	3%	-15%	-12%[15.4 µM]	u	-34%[inhibitor]	26%	15%	-28%
Menin-MLL FL inh	x	0.8	-2.5	x	-1.5	0.2	-5.0	-0.1

25: CCCCn1cnc2c(SCCc3ccccc3)nc(N)nc21
26: CCc1ccc(NC(=O)Cn2nc(C)n3cccc3c2=O)cc1
27: Cc1ncc[nH]1
28: Cc1ccc(C=C2C=C(c3ccccc3)OC2=O)cc1
29: CCC1CCC(C(=O)NC(C(=O)NCCc2ccc(S(N)(=O)=O)cc2)C(C)C)CC1 (stereo not given)
30: CCC(C)CNC(=O)c1cccc(OC2CCN(CC(C)(C)C)CC2)c1 (stereo not given)
31: N=c1n(CCCOc2ccc(F)cc2)c2ccccc2n1CC(N)=O
32: COc1ccc(S(=O)(=O)CCC(=O)Nc2cccc(OC)c2)cc1
Screen / compound no.	25	26	27	28	29	30	31	32
Sfp inh	x	8%	32%[activator]	x	2%	x	7%	5%
gsp antag	-16%	0%	7%	x	13%	13%	13%	x
ClpP mod	28µM*	-0.7%	2.1%	-3.5%	0.1%	x	x	x
CtBP-E1A blk	10	x	0	4	x	4	-4	x
TRPV1 PAM	x	-15	1	x	18	x	12	9
gsp agonist	u	-21%	x	-18%	22%	1%	5%[15.4 µM]	x
Menin-MLL FL inh	x	x	-0.7	x	11	x	4.9	0.8

As a working copy, some entries already given:
22: Cc1ccc(-c2cc(C(=O)Nc3c(C)n(C)n(-c4ccccc4)c3=O)[nH]n2)c(O)c1
23: Cc1ccccc1OCC(=O)NCCCNC(=O)c1ccncc1
24: Oc1c(CN2CCN(c3ccccc3)CC2)cc(Br)c2cccnc12
25: CCCCn1cnc2c(SCCc3ccccc3)nc(N)nc21
26: CCc1ccc(NC(=O)Cn2nc(C)n3cccc3c2=O)cc1
27: Cc1ncc[nH]1
28: Cc1ccc(C=C2C=C(c3ccccc3)OC2=O)cc1
29: CCC1CCC(C(=O)NC(C(=O)NCCc2ccc(S(N)(=O)=O)cc2)C(C)C)CC1 (stereo not given)
Screen / compound no.	22	23	24	25	26	27	28	29
Sfp inh	19%	1%	13%	x	8%	32%[activator]	x	2%
gsp antag	-1%	4%	8%	-16%	0%	7%	x	13%
ClpP mod	1.1%	x	-1.3%	28µM*	-0.7%	2.1%	-3.5%	0.1%
CtBP-E1A blk	10	-2	-26	10	x	0	4	x
TRPV1 PAM	-5	2	23	x	-15	1	x	18
gsp agonist	26%	15%	-28%	u	-21%	x	-18%	22%
Menin-MLL FL inh	0.2	-5.0	-0.1	x	x	-0.7	x	11

(further entries)
33: COc1ccc(Cl)c2c1[nH]c1nc(SCc3cccnc3)nnc12
34: Cc1ccc(S(=O)(=O)Nc2ncnc3ccccc23)cc1
35: COc1ccc(OCC(=O)Nc2sc3c(c2C(=O)NCC2CCCO2)CCC3)cc1 (stereo not given)
36: CCS(=O)(=O)N1CCC(NC(=O)c2ccco2)CC1
37: C#Cc1cccc(C(=O)N2CCCC(Nc3cccc(F)c3)C2)c1 (stereo not given)
38: CCCC(=O)O[C@@H]1C[C@@H](C)N(C(=O)c2ccccc2)c2ccc(C)cc21
39: COc1ccc(OC)c(/C=C/C(=O)c2ccc3c(c2)OCCO3)c1
40: COC(=O)c1cc(C(=O)Nn2cnnc2)cc([N+](=O)[O-])c1
Screen / compound no.	33	34	35	36	37	38	39	40
Sfp inh	2%	2%	u	17%	-2%	10%	-22%	18%
gsp antag	14%	2%	-9%	11%	-6%	-3%	-22%	7%
ClpP mod	x	x	-20%	u	1.6%	26%	-4.1%	-0.2%
CtBP-E1A blk	-10	-11	1	11	0	0	x	x
TRPV1 PAM	2	12	x	-15	-2	-6	-3	27
gsp agonist	-1%[15.4 µM]	10%[15.4 µM]	16%	12%	u	-28%	26%	3%
Menin-MLL FL inh	-6.0	-2.3	2.6	-1.0	x	0.1	-1.8	1.7

41: C[C@]12CC[C@H](O)CC1=CCC1C2CC[C@@]2(C)C1CCC21OCCO1 (stereo not given in full)
42: COC(=O)CN1C(=O)C2(OCCCO2)c2ccccc21
43: O=C(OCC(=O)N1CCc2ccccc21)c1ccc[nH]c1=O
44: c1ccc(-c2ncnc3ccccc23)cc1
45: CCOC(=O)[C@H](CCc1ccccc1)N[C@@H](C)C(=O)N1[C@H](C(=O)O)C[C@@H]2CCC[C@@H]21
46: COc1ccccc1C(=O)COC(=O)c1cc([N+](=O)[O-])ccc1N1CCOCC1
47: Cc1nn(C)cc1S(=O)(=O)N1CCN(c2ccc(F)cc2)CC1
48: CC(Cc1c[nH]c2ccccc12)NC(=O)OCCCl (stereo not given)
Screen / compound no.	41	42	43	44	45	46	47	48
Sfp inh	x	7%	20%	x	x	x	15%	13%
gsp antag	-7%	11%	8%	-3%	-4%	2%	11%	-1%
ClpP mod	x	-0.4%	28µM*	-2.0%	0.4%	4.9%	-1.0%	-5.0%
CtBP-E1A blk	0	6	-24	-5	3	-4	1	4
TRPV1 PAM	x	4	-7	x	x	2	2	-7
gsp agonist	-18%	3%	-2%[15.4 µM]	-3%	x	u	10%	-15%
Menin-MLL FL inh	x	3.6	3.3	x	x	x	x	-0.9

49: N/C(Cc1ccc([N+](=O)[O-])cc1)=N\OC(=O)c1ccc([N+](=O)[O-])cc1
50: COC(=O)Cc1ccc(NC(=S)NCc2ccccc2OC)cc1
51: COc1ccccc1C(=O)NCCC(=O)NCCc1ccccc1
52: CC1(c2ccc(Cl)cc2)NC(=O)N(CC(=O)N2CCN(C(=O)c3cccs3)CC2)C1=O (stereo not given)
Screen / compound no.	49	50	51	52
Sfp inh	-1%	13%	6%	x
gsp antag	5%	-7%	8%	x
ClpP mod	1.0%	x	-0.8%	0.5%
CtBP-E1A blk	-19	-16	3	0
TRPV1 PAM	-9	-8	-15	x
gsp agonist	6%	20%	-2%	-13%
Menin-MLL FL inh	0.3	-2.9	x	x
